Menin MLL FP FL = displaces fluorescein MLL peptide from human menin. Fluorescence polarization, fluorescein-MLL peptide displacement from menin. FP activity change, % at 61.4 µM. 290,000 tested, under 10 active. AID 1766; inconclusive = falling polarisation curve, or a change in total fluorescence; inactive = total fluorescence flat and polarisation flat or rising; no compound was filed as active; the % refers to the polarisation; negative = inhibition;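 also: % of control where 0% means no effect; inhibitors lower the polarisation; unlabelled MLL peptide was the positive control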
ClpP mod = qHTS Assay for Activators of ClpP | Potency, µM (series often up to 57.5 µM), inactives show at the top dose activity change, negative = active | AID 651965, 2013 | purified B. subtilis ClpP, FRET peptide cleavage, 20 min | 340,000 tested, 1.9% active | ATP-dependent Clp protease proteolytic subunit (Bacillus subtilis (strain 168)), P80244; active = well fitted falling curve with a large enough effect; inconclusive = small, poorly fitted or top-dose-only effect; inactive = no such curve, though single readings can be large or run the other way; also: potency is read from the fitted curve at half-maximal effect; the source files actives as falling curves though it sought activators and does not explain the sign; nearly all actives have a fitted effect of over 65% in size; many hits overshoot -100%
Target sequence (P80244 whole entry, looked up): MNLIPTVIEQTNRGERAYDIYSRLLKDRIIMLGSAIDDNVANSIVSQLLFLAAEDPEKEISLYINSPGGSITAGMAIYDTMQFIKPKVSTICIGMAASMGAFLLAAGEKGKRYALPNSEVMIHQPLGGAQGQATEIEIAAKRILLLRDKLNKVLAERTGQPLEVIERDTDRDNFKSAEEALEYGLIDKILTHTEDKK
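FRET quenching reversal measured ClpP activation: 10 microg/mL B. subtilis ClpP at pH 8 with the FRET-FV decapeptide, read at 430 nm after 320 nm excitation. The 20-min minus 0-min signal was scaled between DMSO/no-enzyme wells and ADEP (5.8 microM final).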
gsp agonist = activates gsp, the McCune-Albright syndrome mutation; AID 624287; 340,000 tested, 0.13% active; Potency, µM (titrated, usually from 76.9 µM), inactives show at the highest dose activation (cAMP increase), most hits filed as activators; gsp mutant cells, cAMP HTRF, 30 min; control for the full effect not named in the record; active = well fitted activation curve with a large enough effect; inconclusive = small, poorly fitted or top-dose-only effect, or another doubt; inactive = no such curve, though single readings can be large or run the other way; cell line not stated here;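 also: phosphodiesterase inhibitor Ro 20-1724 added with compounds to block cAMP breakdown; potency is read from the fitted curve at half-maximal effect; nearly all actives have a fitted effect of over 60% in size; about a fifth of the inactives were tested at one dose only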
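Cells in DMEM/10% FBS with G418 were pretreated with compounds in DMSO plus […] (300 uM stock) for 30 min at 37C. cAMP was measured by HTRF (cAMP-d2 plus anti-cAMP antibody-K) after 30 min at room temperature.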
TRPV1 PAM = human TRPV1 potentiation | TRPV1-expressing cells, Fluo-8 calcium influx, capsaicin EC20 potentiation; host cell line not named in the record; control for the full effect not named in the record | potentiation, % at 8.33 µM | 320,000 tested, 0.02% active | AID 540277; active means potentiation above 80%; inconclusive means 30% to 80%; inactive means below 30%; also: 0% is about no effect
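Cells expressing TRPV1 were dye-loaded with Fluo-8 and read kinetically: 10 s baseline, 3 min after compound (agonist portion), then 2 min after EC20 capsaicin (allosteric enhancer portion). Calcium-bound dye fluorescence at 480/520 nm.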
Sfp PPTase inh = blocks B. subtilis Sfp PPTase activity. Q9F4F7. Biochemical Sfp PPTase activity, qHTS. Potency, µM, inactives show max response, negative = inhibition, usual class: inhibitors. 310,000 tested, 3.5% active; active = well fitted inhibition curve with a large enough effect; inconclusive = small, poorly fitted or top-dose-only effect, or another doubt; inactive = no such curve, though single readings can be large or run the other way;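 also: the enzyme is Sfp with the accession as filed and its product quenches rhodamine fluorescence; potency is read from the fitted curve at half-maximal effect; 0% = enzyme reaction without inhibitor and -100% = no enzyme wells; top concentration of the series not given in the record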
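Fluorescence-quenching assay with 15 nM Sfp, 5 uM rhodamine-CoA and 12.5 uM BHQ-2-labelled ybbR peptide in pH 7.6 Hepes/MgCl2 buffer. Enzyme was pre-incubated with compound for 15 min at room temperature. Rate was taken from the 30-min fluorescence change (525/598 nm).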
gsp antagonist = antagonizes gsp, the McCune-Albright syndrome mutation; gsp-mutant cells, cAMP HTRF, 30 min; control for the full effect not named in the record; Potency, µM (series often up to 76.9 µM), without a hit: top-dose activity change, negative = inhibition, actives largely listed as inhibitors; 340,000 tested, 0.4% active; active = falling curve of any shape with a large fitted effect; inconclusive = falling curve, mostly with a smaller effect; inactive = flat or rising curve; cell line not stated here;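 also: intracellular cAMP measured with PDE inhibitor Ro 20-1724 present during compound exposure; potency is read from the fitted curve at half-maximal effect; % is scaled to controls: 0 for no effect and ±100 for the full control effect; nearly all actives have a fitted effect of over 65% in size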
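Cells in G418 medium, seeded 16-24 h, 37C; buffer exchange to DPBS + 1 mM CaCl2, 0.5 mM MgCl2, 0.05% BSA; cpds in DMSO + […] (300 uM stock), 30 min 37C; HTRF cAMP detection.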
TRPML1 inh = blocks the human TRPML1 channel; Q9GZU1; activity change, negative = inhibition, % (no concentration beside the values); TRPML1-inducible cells, Ca2+ dye fluorescence, FDSS; hits give low values; inhibition of EC80 agonist-evoked calcium signal; 390,000 tested, 0.02% active; in the data active means activity change below about -50%; inconclusive means about -30% to -50%; inactive means above about -30%;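 also: stimulus is agonist 54-4 at its EC80 concentration; % is scaled to controls: 0 for no effect and ±100 for the full control effect; compound concentration not given in the record; the text of the record puts the active cut at -80%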
Target sequence (Q9GZU1 whole entry, looked up): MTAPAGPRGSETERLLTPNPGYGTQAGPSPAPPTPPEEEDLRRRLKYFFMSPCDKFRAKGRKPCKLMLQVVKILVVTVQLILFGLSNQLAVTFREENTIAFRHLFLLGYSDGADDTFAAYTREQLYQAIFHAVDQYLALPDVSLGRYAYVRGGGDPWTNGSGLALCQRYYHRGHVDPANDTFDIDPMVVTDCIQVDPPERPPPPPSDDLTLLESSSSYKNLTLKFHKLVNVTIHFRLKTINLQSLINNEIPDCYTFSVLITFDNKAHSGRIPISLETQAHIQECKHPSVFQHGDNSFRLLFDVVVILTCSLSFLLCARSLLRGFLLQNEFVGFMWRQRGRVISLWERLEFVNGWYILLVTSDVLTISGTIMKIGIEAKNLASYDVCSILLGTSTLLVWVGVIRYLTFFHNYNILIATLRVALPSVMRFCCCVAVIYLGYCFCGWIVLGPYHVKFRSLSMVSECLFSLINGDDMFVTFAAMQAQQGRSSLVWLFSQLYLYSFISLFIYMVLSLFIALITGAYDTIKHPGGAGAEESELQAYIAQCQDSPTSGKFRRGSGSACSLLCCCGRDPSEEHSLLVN
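Calcium fluorescence in TRPML1-DL cells induced overnight with Tet: a 110 s read after compound pin addition, then a 110 s antagonist read after challenge with 54-4 at 4 uM final (EC80).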
* hit, by the source's call; ? = inconclusive; / = not tested or not shown; & = joins results of further samples; [ ] = dose if it differs, or a comment.

SMILES	Menin MLL FP FL	ClpP mod	gsp agonist	TRPV1 PAM	Sfp PPTase inh	gsp antagonist	TRPML1 inh
CC1=NNC(=O)C1CC(=O)N/N=C/c1cccs1 (centres undefined)	6.3	1.5%	4%	-7	9%	-2%	7
Cc1cc2nc(-c3cccnc3SCC(=O)NC3CC3)[nH]c2cc1C	-2.0	/	/	-10	-4%	/	/
COc1ccc(-c2nnc3sc(-c4ccccc4OC)nn23)cc1	-0.1	-3.2%	5%	-5	11%	13%	-6
C1CCC2(CC1)C1=C(CCCC1)Nc1nnnn12	3.3	1.0%	-2%	2	7%	4%	-2
CC(=NCCCN(C)C)C1=C(O)c2ccccc2C1=O	2.4	-1.8%	-21%	7	1%	8%	-2
NS(=O)(=O)CCCc1ccccc1	7.7	-0.8%	?	17	11%	11%	-29
Cc1c(/C=N/NC(=O)c2cccnc2)c2ccccc2n1Cc1ccccc1	?	/	-7%[15.4 µM]	-15	-11%	-13%	28
COc1ccc(N2C(=O)[C@H]3CCC=C[C@H]3[C@@H]2c2ccccc2Br)cc1	3.8	0.1%	/	/	-32%	-6%	-2
CCCCn1c(SCC(=O)Nc2nnc(C)s2)nnc1-c1ccncc1	1.7	3.5%	-4%	-5	19%	-12%	2
Fc1ccc(-c2nc3ccccc3c3nc4ccccc4n23)cc1	4.9	14%	?	3	?	7%	-1
CC1CC(=O)c2cn3c(nc2C1)nc1ccccc13 (centres undefined)	10	-2.2%	?	9	9%	7%	-3
Cc1cc(C)nc(SCc2cc(=O)c(OC(=O)c3ccc(S(=O)(=O)N(C)C)cc3)co2)n1	4.0	2.8µM*	-6%	1	-9%	-20%	33
O=C(N/N=C\c1cccc([N+](=O)[O-])c1O)C1COc2ccccc2O1 (centres undefined)	-0.3	-0.5%	-20%	26	15%	0%	-2
CNc1nc(-c2ccc(OC)cc2)c(-c2ccc(OC)cc2)s1	-2.0	-17%	18%	5	-18%	-5%	9
Cc1nc(NC(N)=S)sc1C(=O)Nc1ccccc1	9.0	1.7%	?	-6	-19%	-2%	-4
CC1CCN(c2ccccc2NC(=O)c2ccc(F)cc2)CC1	1.2	0.3%	7%	-16	-3%	-1%	6
CCOC(=O)c1ccc(NC(=O)NCc2ccn(CC)n2)cc1	0.0	0.1%	-19%	-1	15%	-9%	-2
Cc1cc(=O)n2c(n1)NC(=NCc1ccccc1)NC2c1ccccc1 (centres undefined)	-0.6	/	9%[15.4 µM]	6	7%	-3%	-16
CCN(CC)S(=O)(=O)c1ccc(C(C)NC(=O)Cc2c[nH]c3ccccc23)cc1 (centres undefined)	-0.9	/	23%[15.4 µM]	14	6%	-2%	10
Nc1cc(N)c2c(c1)C(=O)c1ccccc1-2	/	/	-9%	/	/	?	3
CCCCn1c(=O)nc2n(-c3ccccc3)c3ccccc3cc-2c1=O	0.3	25µM*	1%	-18	-16%	-4%	19
Cc1cccc(NCC(=O)c2c(N)n(C)c(=O)n(C)c2=O)c1C	0.2	0.3%	?	8	16%	15%	3
CCCC(=O)Nc1nnc(SCC(=O)Nc2nc(C)cs2)s1	/	-3.8%	-9%[15.4 µM]	5	13%	11%	0
COc1ccc(CN(C(=O)c2ccc(C)cc2)c2cccc(N)c2)cc1	/	-1.5%	-5%	-27	/	1%	7
CCC(C)[C@@H](N)C(=O)N/N=C/c1cccc2nccnc12 (some centres undefined)	-0.2	?	19%[15.4 µM]	?	?	3%	25

Other structures follow:
SMILES	Menin MLL FP FL	ClpP mod	gsp agonist	TRPV1 PAM	Sfp PPTase inh	gsp antagonist	TRPML1 inh
Cc1ccc(NC(=O)N2Cc3ccccc3CC2C(=O)NC(C)(C)C)cc1 (centres undefined)	2.5	0.0%	-1%	-23	22%	-9%	-9
COc1ccc(Cl)cc1NC(=O)CSc1nnc(CNC(=O)c2cccs2)o1	/	0.7%	3%	-4	-2%	-14%	8
CC(C)Cc1ccc(CN2CCCC(NC(=O)CCN3CCCO3)C2)cc1 (centres undefined)	/	-0.4%	16%	4	3%	11%	-8
Cc1ccc(-c2noc(CSc3nnc(-c4ccccc4)n3C)n2)cc1	1.0	-0.9%	0%	-1	6%	?	-7
Cc1ccc(C)c(NC(=S)N2CCC(NC(=O)c3ccc(F)cc3)CC2)c1	2.2	0.1%	-7%[15.4 µM]	-8	12%	-16%	-10
O=C(c1ccc(Cl)cc1Cl)N1CCc2ccccc21	-0.3	/	-57%[inhibitor]	7	8%	-21%	7
COc1ccc(S(N)(=O)=O)cc1C(=O)N1CCCC1	-6.7	/	-5%[15.4 µM]	3	5%	15%	-2
COC(=O)c1ccc(/C=N/NC(=O)CNc2cccc(C)c2)cc1	-2.1	/	15%[15.4 µM]	-9	2%	-16%	-3
COC(=O)c1c(NC(=O)CN2CCN(c3ccccc3OC)CC2)c2cc(C)ccc2n1C	1.7	-21%	-11%	/	3%	7%	8
O=S(=O)(CC(O)COc1ccccc1Cl)c1ccccc1 (centres undefined)	3.6	-1.3%	-23%	2	-4%	7%	-6
O=C(Nc1nncs1)c1cccc(S(=O)(=O)N2CCOCC2)c1	0.9	-1.8%	21%	-2	19%	-3%	11
O=C(CSc1ccccc1)Nc1ccc(S(=O)(=O)NCC2CCCO2)cc1 (centres undefined)	2.5	-8.7%	?	20	-3%	7%	-3
Cn1c(=O)c(=O)n(C)c2cc(S(=O)(=O)N3CCN(c4ccccc4F)CC3)ccc21	5.1	-15%&-15%	6%[15.4 µM]	-8	-7%	0%	-26&11
C[C@@H](CC#N)CN1CC[C@H](C(C)(C)C)CCC1=O	1.3	-5.6%&-12%	?	-22	1%	3%	9
CCn1c(SCC(=O)N(C)CC(=O)Nc2cccc(OC)c2)nnc1-c1ccco1	/	28µM*	-21%	1	/	7%	-14
Cc1cc(C)n(-c2c(F)c(F)c(CN3CCOCC3)c(F)c2F)n1	-1.6	-0.3%	16%	14	10%	9%	17
COc1cc(OC)c(OC)cc1CCC(C)NCCC(c1ccccc1)c1ccccc1 (centres undefined)	1.5	-0.2%	?	19	-4%	-6%	0
Nc1nn(-c2ccccc2Cl)cc1-c1nn[nH]n1	-0.7	-2.0%	12%	-9	-9%	-4%	0
COC(=O)c1ccc(C2/C(=C(\O)c3ccc4c(c3)OCCO4)C(=O)C(=O)N2CCCN(C)C)cc1 (centres undefined)	3.6	-0.8%	8%	-2	8%	1%	-1
Cc1ccc(N(C(=O)c2csnn2)C(C(=O)NC2CCCC2)c2cccnc2)c(C)c1 (centres undefined)	-3.1	/	-38%[inhibitor]	0	-5%	0%	-11
O=C(COc1ccc(Br)cc1)NCCCNC(=O)c1ccncc1	0.5	0.3%	26%	-3	4%	4%	8
Cc1cc(OCC(=O)N2CCc3ccccc3C2)c2c(-c3ccccc3)cc(=O)oc2c1	2.5	-8.9%	1%	-12	5%	10%	87
Cn1c(Sc2ccc(C(=O)O)cc2[N+](=O)[O-])nnc1-c1ccccc1	0.2	/	7%[15.4 µM]	7	10%	6%	53
Cc1cc(N2CCN(C)CC2)nc(=S)[nH]1	-3.3	/	-8%	6	50µM*	8%	22
COc1ccc(OC(=O)COc2ccc(Cl)cc2)cc1	5.6	/	-82%[inhibitor]	-3	9%	12%	3

Sorted by value in TRPML1 inh (lowest first): some entries from above
canonical_smiles,TRPML1 inh
CC1=NNC(=O)C1CC(=O)N/N=C/c1cccs1 (centres undefined),7
C[C@@H](CC#N)CN1CC[C@H](C(C)(C)C)CCC1=O,9
CCCCn1c(=O)nc2n(-c3ccccc3)c3ccccc3cc-2c1=O,19

Carrying on.
SMILES	Menin MLL FP FL	ClpP mod	gsp agonist	TRPV1 PAM	Sfp PPTase inh	gsp antagonist	TRPML1 inh
O=[N+]([O-])c1ccc2[nH]c(O)c(N=Nc3ccc(F)cc3)c2c1	?	1.3%	38%	10	-4%	-8%	21
CC(c1ccccc1)n1c(Cn2ncc3ccccc3c2=O)n[nH]c1=S (centres undefined)	0.8	0.7%	?	0	-2%	-3%	11
CC(C)C(=O)NC(=S)Nc1ccc(S(=O)(=O)N2CCN(C)CC2)cc1	1.7	0.9%	-22%	4	4%	7%	-3
CCCN(CC1CC1)C(=O)CCc1nnc(C(OC)c2ccccc2)o1 (centres undefined)	1.1	0.1%	7%	-1	1%	10%	-8
CS(=O)(=O)N1CCN(c2ccccc2NC(=S)NC(=O)c2ccco2)CC1	/	0.8%	-5%	/	/	?	4
COc1cc(/C=N/NC(N)=O)cc([N+](=O)[O-])c1O	0.8	/	-5%[15.4 µM]	-2	-2%	?	3
Cc1ccc(C(=O)OCC(=O)N2C(C)CCCC2C)s1 (centres undefined)	/	-1.0%	-1%	-3	/	10%	21
COc1ccc(/C=C(/NC(=O)c2ccccc2)C(=O)N/N=C/c2ccncc2)cc1	2.7	-0.3%	24%	-8	-1%	-10%	-7
COc1cccc(S(=O)(=O)Nc2cccnc2)c1	-4.9	0.7%	1%	-2	3%	1%	9
COC(=O)c1ccccc1NC(=O)c1cncc(Br)c1	1.3	8.2%	-11%	10	20%	16%	-16
Cc1ccc(C)c(OCCn2cc(/C=C(\C#N)C(=O)NCC3CCCO3)c3ccccc32)c1 (centres undefined)	5.8	-4.1%	-94%[inhibitor]	4	?	-22%	43
O=C(O)CCC(=O)N1CCc2cc(S(=O)(=O)NC3CCCc4ccccc43)ccc21 (centres undefined)	0.8	0.3%	2%	-7	-10%	9%	-3
COc1cc(O)c(C(CCN2CCCCC2)c2ccc3c(c2)OCO3)c(OC)c1 (centres undefined)	-0.1&-1.0	-1.3%	/	0	9%&-8%	4%	-9&16
N=c1n(CCO)c2ccccc2n1CCN1CCCCC1	-1.1	/	1%[15.4 µM]	-1	17%	8%	-8
Cc1ccc(CNC(=O)c2ccccc2NC(=O)CN2CCN(C)CC2)cc1	-1.0	/	1%[15.4 µM]	6	18%	9%	13
Cc1ccc(C(=O)NC2CC2)cc1S(=O)(=O)N1CCOCC1	/	-1.4%	?	-4	/	1%	-7
O=C(CN1C(=O)S/C(=C\c2cccs2)C1=O)Nc1ccc(C(=O)O)c(O)c1	/	1.7%	-2%	?	-1%	-2%	12
